MARV entry inh = blocks Marburg virus binding to or entry into cells; Marburg virus pseudotyped entry inhibition, cell reporter; control for the full effect not named in the record; about a third of the inactives were read at about 46 µM; Potency, µM (series often up to 37.8 µM), without a hit: top-dose activity change, negative = inhibition, hits mostly inhibitors; actives 1.8% (n = 300,000); active = well fitted inhibition curve with a large enough effect; inconclusive = small, poorly fitted or top-dose-only effect, or effect the other way; inactive = flat fitted curve, though single readings scatter; tested in HEK293 cells; about a fifth of its hits are not listed in these tables; also: % is scaled to controls: 0 for no effect and ±100 for the full control effect; luciferase read-out
SARS PLP yeast = blocks SARS-CoV papain-like protease in a yeast assay | actives 0.19% (n = 330,000) | Potency, µM (highest dose often 32.9 µM), for inactives: at the top dose activity, positive = growth rescue | S. cerevisiae expressing SARS-CoV PLpro, growth rescue; control for the full effect not named in the record; active means well fitted rising curve with a large enough effect; inconclusive means small, poorly fitted or top-dose-only effect; inactive means no such curve, though single readings can be large or run the other way; also: 0% is about no effect; nearly all actives have a fitted effect of over 55% in size; growth read by luminescence after 48 h
StopGo reporter = lowers the luciferase signal of an FMDV 2A StopGo reporter; human cells with a luciferase reporter of 2A StopGo recoding; control for the full effect not named in the record; AID 1159524; actives 1.2% (n = 410,000); Potency, µM (highest dose often 57.9 µM), inactives show top-dose signal change, negative = less light; active = well fitted falling curve with a large enough effect; inconclusive = small, poorly fitted or top-dose-only effect; inactive = no such curve, though single readings can be large or run the other way; tested in HEK293T cells; also: % is scaled to controls: 0 for no effect and ±100 for the full control effect; nearly all actives have a fitted effect of over 45% in size; luciferase light after 4 h
RE007 growth inh = less growth of the S. pombe RE007 Vpr strain; actives 0.21% (n = 360,000); S. pombe RE007 Vpr strain, BacTiter-Glo ATP luminescence, 24 h; control for the full effect not named in the record; Potency, µM (doses to about 92.2 µM), inactives show at the highest dose activity change, negative = less growth; active = well fitted falling curve with a large enough effect; inconclusive = small, poorly fitted or top-dose-only effect; inactive = no such curve, though single readings can be large or run the other way;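 also: % is scaled to controls: 0 for no effect and ±100 for the full control effect; nearly all actives have a fitted effect of over 50% in size; the assay follows cell death caused by Vpr and the record does not say whether a fall means rescue or toxicity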
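Fission yeast strain RE007, carrying one chromosomally integrated HIV-1 vpr copy, was seeded at OD 0.01 in PMG+AL medium with 23 nL pinned compound. After 24 h at 30 °C and 99% humidity, viability was read by BacTiter-Glo luminescence.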
Cruzain Triton = inhibitors of Trypanosoma cruzi cruzain with detergent. P25779. actives 0.43% (n = 200,000). purified cruzain, Z-FR-AMC fluorescence, 0.01% Triton. Potency, µM, inactives show max response, negative = inhibition, hits mostly inhibitors;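 also: plate controls were neutral wells for no effect and buffer without enzyme for full effect; nearly all actives have a fitted effect of over 40% in size; top concentration of the series not given in the record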
Target sequence (P25779 123-467 limits assumed): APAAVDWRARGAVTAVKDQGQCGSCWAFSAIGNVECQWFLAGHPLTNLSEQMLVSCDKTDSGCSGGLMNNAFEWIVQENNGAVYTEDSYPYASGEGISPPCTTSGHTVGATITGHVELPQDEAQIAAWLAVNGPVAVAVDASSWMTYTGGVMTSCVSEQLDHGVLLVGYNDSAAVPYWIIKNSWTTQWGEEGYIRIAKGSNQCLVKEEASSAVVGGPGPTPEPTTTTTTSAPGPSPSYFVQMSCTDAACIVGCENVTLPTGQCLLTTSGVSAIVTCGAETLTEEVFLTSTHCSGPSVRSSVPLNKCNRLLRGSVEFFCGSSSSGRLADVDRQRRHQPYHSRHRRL
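Sodium acetate buffer (100 mM, pH 5.5) containing 5 mM DTT and 0.01% Triton X-100 hosted 1.5 nM cruzain and test compound for 15 min at room temperature. Cleavage of 2 uM Z-FR-AMC was then tracked by fluorescence.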
NS1 function inh = inhibitors of influenza NS1 protein function. Potency, µM (series often up to 46.1 µM), inactives show top-dose activity, positive = more growth. actives 0.4% (n = 270,000). S. cerevisiae slowed by influenza A NS1, growth recovery by OD600; active means well fitted rising curve with a large enough effect; inconclusive means small, poorly fitted or top-dose-only effect; inactive means no such curve, though single readings can be large or run the other way; also: nearly all actives have a fitted effect of over 50% in size
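Read-out: OD600 growth recovery of NS1-expressing budding yeast. Cells grown overnight at 30C in -URA glucose medium, washed, resuspended and diluted 1:100 in 2% galactose assay medium, pH 6.0. Same strain lacking NS1 served as positive control.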
Cruzain inh noDet = blocks cruzain activity in detergent-free assay; P25779; purified cruzain, Z-FR-AMC fluorescence, no detergent; Potency, µM, inactives show max response, negative = inhibition, most hits filed as inhibitors; actives 2.3% (n = 200,000); AID 1476;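 also: plate controls were enzyme without inhibitor for no effect and buffer without enzyme for full effect; nearly all actives have a fitted effect of over 40% in size; top concentration of the series not given in the record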
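Detergent-free condition (0.00005% Triton X-100) in acetate buffer pH 5.5 with DTT. 1.5 nM enzyme and compound were pre-mixed 15 min, then 2 uM Z-FR-AMC substrate added; reaction progress from fluorescence change between first and third reads (60 s).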
Lassa entry inh = blocks Lassa virus binding to or entry into cells; actives 1.2% (n = 300,000); Lassa virus pseudotype entry inhibition, cell reporter; control for the full effect not named in the record; Potency, µM (titrated, usually from 37.9 µM), inactives show at the top dose activity change, negative = inhibition, hits mostly inhibitors; AID 540256; active means well fitted inhibition curve with a large enough effect; inconclusive means small, poorly fitted or top-dose-only effect, or effect the other way; inactive means flat fitted curve, though single readings scatter; tested in HEK293 cells; also: % is scaled to controls: 0 for no effect and ±100 for the full control effect; nearly all actives have a fitted effect of over 50% in size; luciferase read-out
* marks the source's active call; other numbers are inactive results; ? = inconclusive; / = not tested or not shown; & = joins results of further samples; [ ] = remark or other dose. Unless noted, calls follow the shape of the dose curve; as a rule, active = well fitted curve in the direction sought with a large enough effect; inconclusive = small, poorly fitted or top-dose-only effect, or another doubt; inactive = no such curve, though single readings can be large; an effect the other way counts as inactive or inconclusive. Potency is read from the fitted curve at half-maximal effect.

smiles,StopGo reporter,RE007 growth inh,MARV entry inh,Lassa entry inh,SARS PLP yeast,NS1 function inh,Cruzain inh noDet,Cruzain Triton
Cc1cccc(C)c1NC(=O)C(NC(=O)c1ccccn1)c1ccc([N+](=O)[O-])cc1 (centres undefined),-23%,6%,-3%,1%,1%,5%,3%,1.2%
Nn1cnc2c(c1=O)C1(CCCCC1)Cc1ccccc1-2,?,12%,?,2%,-30%,-6%,-3%,-6.6%
COc1ccc(-c2nc(CCl)cs2)cc1OC,-19%,-17%,23%[46.1 µM],-6%,-1%,/,/,/
O=C(NC1CCCCCC1)c1c(F)c(F)c(F)c(F)c1F,8%,4%,-19%,-6%,-6%,-8%,-6%,-4.3%
CCOC(=O)c1ccc(N/C(=N\S(=O)(=O)c2ccccc2C)c2ccccc2)cc1,22%,22%,-5%,?,-22%,16%,12%,-2.3%
C=CCn1c(O)c(C(C)=NCCCn2ccnc2)c(=O)[nH]c1=O,-7%,3%,8%[46.1 µM],20%[46.1 µM],6%,5%,/,/
O=C(Nc1ccc(Br)cc1)c1ccc(F)c(S(=O)(=O)NC2CCCCCC2)c1,-25%,/,/,?,/,/,-30%,-6.6%
O=C(/C=C/c1ccccc1)N1CCC(N2CCC(C(=O)N3CCOCC3)CC2)CC1,22%,7%,-14%[46.1 µM],1%,1%,6%,/,/
O=C1CCCC2=C1C(c1ccc(O)c(O)c1)Nc1ccc3ncccc3c12 (centres undefined),15%,-12%,-11%[46.1 µM],11%[46.1 µM],0%,/,/,/
Cc1ccccc1NC1=NC(C)(C)N=C(N)N1,7%,-10%,-8%,-25%,0%,?,-3%,3.6%
CC1(C)CC(=O)C(C=Nc2ccc(O)cc2)=C(O)C1,/,-18%,-13%,6%,1%,-3%,-8%,1.5%
Cc1ccc(S(=O)(=O)N(c2cccc(C)c2)C2CCS(=O)(=O)C2)cc1 (centres undefined),-4%,-5%,-1%,2%,4%,3%,-4%,1.6%
CCOc1ccc(CCNC(=O)COC(=O)COc2ccc(C#N)cc2)cc1OCC,-23%,0%,-3%,0%,-2%,/,/,/
O=[N+]([O-])c1cc(S(=O)(=O)N2CCCC2)ccc1N/N=C/c1ccncc1,0%,-3%,2%,-22%,10%,1%,-10%,-6.4%
COc1ccc(N2CCN(C(=O)CCS(=O)(=O)c3ccc4c(c3)CCN4C(=O)C3CC3)CC2)cc1,-25%,22%,/,/,2%,-10%,/,/
CSc1ccc(COC(=O)CCS(=O)(=O)c2ccc(C)cc2)cc1,-6%,6%,10%,-3%,-1%,/,/,/
CC(=O)c1cccc(NC(=O)COC(=O)C2CCCN2C(=O)c2cccs2)c1 (centres undefined),-13%,2%,-3%,0%,4%,/,/,/
[O-][N+]12CCCCC1CCCC2CO (centres undefined),0%,-4%,/,/,0%,5%,/,/
O=C1C2CC=C(Cl)CC2C(=O)N1CCC[n+]1cccc2ccccc21 (centres undefined),-4%,-26%,?,19%,-7%,5%,8%,-1.7%
COc1cccc(CN2CC(C(=O)NCCOc3ccccc3F)CCC2=O)c1 (centres undefined),-4%,3%,/,/,2%,-10%,/,/
O=C(Nc1nnc(-c2ccco2)o1)c1cccc(N2C(=O)CCC2=O)c1,46%[activator],25%,15%[46.1 µM],0%,2%,/,/,/
Cc1[nH]c2ccc(C(=O)N3CCN(c4ccc(F)cc4)CC3)cc2c1C,13%,8%,/,/,-4%,-43%,/,/
Cc1ccccc1NC(=O)CSc1nc(-c2ccccc2)cn1-c1ccccc1F,-1%,/,/,?,/,/,15%,-1.7%
CCOc1ccc(C2/C(=C(\O)c3ccc4c(c3)OCCO4)C(=O)C(=O)N2CCCn2ccnc2)cc1OC (centres undefined),-7%,10%,/,/,29%,-1%,/,/
CCN1CCc2c(C#N)c(N3CCOCC3)nc(NCc3ccccc3)c2C1,0%,4%,-26%&4%,-6%,2%,-2%,4%,-3.5%
CCCCCCCSc1ncnc2[nH]ncc12,16%,-12%,?,-26%[46.1 µM],/,/,/,/
CC(=O)c1ccc(N(CC(=O)NC2CCCC2)C(=O)CNC(=O)c2ccco2)cc1,16%,6%,1%[46.1 µM],?,-4%,-1%,/,/
O=C(Nc1nnc(S(=O)(=O)N2CCc3ccccc32)s1)c1cccc(Cl)c1,?,/,/,14%[46.1 µM],/,/,14%,-0.3%
CCOC(=O)C1CCN(C(=O)c2[nH]c3ccc(OC)cc3c2C)CC1,7%,5%,-1%[46.1 µM],?,1%,-7%,/,/
O=C(CSc1nc2c([nH]c3ccccc32)c(=O)n1-c1cccc(Cl)c1)N1CCc2ccccc21,-18%,/,/,11%[46.1 µM],/,/,0%,1.2%
Cc1c(Br)cc(C(=O)N2CCCCCC2)c(C)c1C,-2%,-7%,-28%&-28%[46.1 µM],7%,3%,-113%,4%,-1.3%
Cc1ccnc(NC(=O)c2cccc(S(=O)(=O)N3CCN(c4ccc(F)cc4)CC3)c2)c1,-19%,1%,?,1%[46.1 µM],1%,/,/,/
O=C(c1ccccc1Cl)N(Cc1ccco1)c1ccccn1,8%,/,-1%[46.1 µM],1%[46.1 µM],/,/,-13%,-1.9%
CN1CCN(c2ccc([N+](=O)[O-])cc2C(=O)c2ccccc2)CC1,-29%,-8%,-4%,-23%,14%,-11%,-7%,-4.9%
Cc1cccc(CC(=O)Nc2cccc(-c3nc4cccnc4s3)c2)c1,5%,/,-19%[46.1 µM],5%[46.1 µM],/,/,7%,8.3%
Cc1ccc(SCCN2CCC(NC(=O)OCc3ccccc3)CCC2=O)cc1 (centres undefined),-16%,-14%,/,/,-16%,-19%,/,/
O=C(NC1CCCC1)C1CCN(S(=O)(=O)N2CCCCC2)CC1,-2%,-17%,5%,/,2%,-10%,1%,1.5%
Cn1c(SCC(=O)NC2CCCCC2)nnc1-c1cccc(N)c1,-11%,17%,9%[46.1 µM],-10%,-13%,1%,-17%,-8.1%
Cc1cc(F)ccc1S(=O)(=O)Nc1ccccc1C(=O)NCc1ccccn1,3%,-4%,-17%[46.1 µM],/,-4%,-5%,/,/
CN(C)c1ccc(-c2nnc(-c3cccnc3)o2)cc1,76%[activator],-6%,?,?,-13%,-59%,/,/
CC1CCCCN1S(=O)(=O)c1ccc2[nH]c(=O)cc(C(=O)NCCCN3CCCCCC3)c2c1 (centres undefined),-13%,9%,/,/,-4%,?,/,/
COc1ccc(-c2noc(CSc3nc(N)c(-c4ccccc4)c(=O)[nH]3)n2)cc1,-21%,2%,5%,?,5%,-15%,4%,-2.4%
COc1cc(NC(=O)COC(=O)CCCC2=NS(=O)(=O)c3ccccc3N2)cc(OC)c1,1%,6%,5%[46.1 µM],19%[46.1 µM],-3%,-7%,/,/
O=C(CN1CCN(c2ccccc2)CC1)Nc1ccncc1,-25%,10%,/,/,-9%,4%,/,/
COc1cccc(C(=O)Nc2ccc3nc(N4CCC(C)CC4)cc(C)c3c2)c1,?,/,?,22%[46.1 µM],/,/,9%,-13%
Nc1ccc(-c2nc3c(Cl)c(N)ccc3[nH]2)cc1,18%,-9%,?,-30%,-5%,-2%,32µM*,?
COc1cccc(NC(=O)Cc2cn(C)c3ccccc23)c1,20%,6%,?,1%,/,-77%,-11%,-0.8%
CC(=O)c1ccc(S(=O)(=O)N2CCC(C(=O)Nc3ncc(C)s3)CC2)cc1,-8%,-17%,-26%,2%,-5%,/,/,/
CCOC(=O)N1CCN(CC(=O)Nc2cccc(Br)c2)CC1,-9%,-10%,2%,?,3%,-14%,-1%,3.0%
O=C(Nc1ccc(Br)cn1)C1CCN(S(=O)(=O)c2cccs2)CC1,?,1%,?,-21%,0%,0%,/,/
CCC(=O)Nc1cc(C(F)(F)F)ccc1N1CCOCC1,-18%,21%,-5%[46.1 µM],3%,0%,-8%,3%,3.3%
Cc1cc(N(C)C)c(C#N)c(NCc2ccccc2)n1,-6%,-4%,4%,-23%,-8%,-18%,4%,1.8%
CC(Nc1ccccc1)c1cc(Cl)ccc1O (centres undefined),-8%,6%,12%,20%,-3%,3%,5%,-6.3%
O=C(N/N=C/c1ccc([N+](=O)[O-])s1)c1ccccc1,?,14%,?,?,-34%,/,/,/
CCC(C)(C)n1nnnc1C(c1cccs1)N1CCc2ccccc21 (centres undefined),/,5%,?,-29%,-9%,-76%,1%,-1.9%
CC(C)[C@H](NC(=O)NCc1ccc(Cl)cc1)C(=O)O,-7%,6%,7%,-41%[14.3 µM],-4%,7%,-6%,1.4%
O=C(CNC(=O)c1cccs1)NCC(=O)OCc1ccc(Cl)cc1Cl,/,6%,18%,10%,4%,4%,7%,0.7%
CSc1cccc(N2CC(C(=O)Nc3ccccc3N3CCCC3)CC2=O)c1 (centres undefined),-17%,-21%,?,6%,-1%,/,/,/
CCOC(=O)N/N=C(\C)c1ccccc1OC(F)F,-9%,20%,21%,?,-5%,9%,-5%,0.8%
S=c1[nH]nc(-c2cccc(Cl)c2)n1CCN1CCCCC1,3%,1%,26%,?,3%,22%,-27%,-2.1%

New compounds follow.
smiles,StopGo reporter,RE007 growth inh,MARV entry inh,Lassa entry inh,SARS PLP yeast,NS1 function inh,Cruzain inh noDet,Cruzain Triton
O=C(NCCCN1CCCC1=O)c1ccc(Cl)c(NS(=O)(=O)c2ccc(F)cc2)c1,-7%,-12%,9%,-3%,6%,-6%,-2%,5.5%
C/C(=N\NC(=O)c1ccncc1)c1cc2ccccc2oc1=O,-25%,-10%,3%,-5%,4%,3%,2%,-4.2%
COc1ccc(CN2C(=O)c3ccc(C(=O)O)cc3C2=O)cc1,-16%,-1%,/,/,0%,3%,/,/
COc1ccc(CN2CCNC(=O)C2CC(=O)N(C)Cc2ccno2)c(F)c1 (centres undefined),?,-13%,-5%,-9%,-1%,8%,/,/
CC(=O)NC(NC(=S)Nc1ccccc1Br)C(Cl)(Cl)Cl (centres undefined),5%,-8%,4%[46.1 µM],-2%[46.1 µM],2%,/,/,/
CCOC(=O)c1ccc2c(c1)sc1nc(-c3ccc(OCC)cc3)cn12,-3%,/,?,/,/,/,-1%,-0.5%

Compound activity from PubChem.
